GLA inh pH 4.5 = inhibitors of human alpha-galactosidase A at pH 4.5; activity change, negative = inhibition, % at 105 µM; P06280; purified enzyme, 4-MU-alpha-Gal fluorescence, pH 4.5; 230,000 tested, under 10 active; inconclusive = small, poorly fitted or top-dose-only inhibition, or a rising curve; inactive = flat fitted curve, though single readings scatter; no compound was filed as active;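 also: 0% = full activity with enzyme and -100% = basal without enzyme; dose as in the result columns while the protocol names 77 µM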
Target sequence (P06280 whole entry, looked up): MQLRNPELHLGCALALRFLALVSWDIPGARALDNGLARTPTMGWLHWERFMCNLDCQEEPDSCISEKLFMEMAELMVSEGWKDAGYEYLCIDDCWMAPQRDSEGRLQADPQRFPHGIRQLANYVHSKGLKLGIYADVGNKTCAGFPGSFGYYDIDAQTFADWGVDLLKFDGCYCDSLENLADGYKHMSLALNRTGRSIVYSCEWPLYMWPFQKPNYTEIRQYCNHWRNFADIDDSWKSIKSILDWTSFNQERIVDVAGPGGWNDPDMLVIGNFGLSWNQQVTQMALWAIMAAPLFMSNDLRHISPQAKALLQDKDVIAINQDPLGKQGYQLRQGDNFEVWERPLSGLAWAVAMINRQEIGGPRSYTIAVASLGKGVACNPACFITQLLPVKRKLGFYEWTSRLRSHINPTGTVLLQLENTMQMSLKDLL
The depositor's hits bear a star; ? = inconclusive; & = joins results of further samples. The list is partial; count on the stated rates, not on these rows.

SMILES	GLA inh pH 4.5
COC(=O)CCCc1[se]c2ccccc2c1I	3.4
CCC(C)C(=O)OC1C(O)C2C(CN3CC(C)CCC3[C@]2(C)O)C2C[C@]34O[C@@]5(O)C(OC(=O)C(C)(O)CC)CCC3(C)C5C(OC(C)=O)C(OC(C)=O)C4[C@@]21O (stereo partly drawn)	-2.2
CCN1C[C@]2(C)CC[C@H](O)[C@@]34[C@@H]5CC6[C@@H](OC)C[C@@](O)([C@@H]5[C@@H]6O)[C@H](C[C@@H]23)[C@H]14	7.3
COc1c(CC=C(C)C)c2c(c3oc(=O)c(-c4ccc(O)cc4)c(O)c13)C=CC(C)(C)O2	-4.9
CC(=O)OCC1=C(C(=O)O)N2C(=O)[C@@H](N)[C@@H]2SC1	2.5
CC(=O)Nc1c2sscc-2n(C)c1=O	-12.5
CCCCC/C=C\C/C=C\C/C=C\C/C=C\CCCC(=O)NCCO	1.4&-0.2&-7.7
CCCCC/C=C\C/C=C\C/C=C\C/C=C\CCCC(=O)NCc1ccoc1	-5.4
CC(C)NC[C@H](O)c1ccc(N)c(C#N)c1	-4.8
c1ccc2c(c1)[I+]c1ccccc1-2	-5.9&-6.0
CC(C)(C)NC[C@@H](O)COc1cccc2[nH]c(C#N)cc12	-1.9
C[C@@H]1O[C@H](O[C@H]2C[C@@H](O)[C@@]3(CO)[C@H]4[C@@H](O)C[C@]5(C)[C@@H](C6=CC(=O)OC6)CC[C@]5(O)[C@H]4CC[C@]3(O)C2)[C@@H](O)[C@H](O)[C@@H]1O	1.3
Clc1ccc(Cl)cc1	-19.7
CCN(CC)/[N+]([O-])=N/O	11.4
C=C(C)[C@]12C[C@@H](C)[C@@]34OC(Cc5ccccc5)(O[C@@H]1[C@@H]3C=C(COC(=O)Cc1cc(I)c(O)c(OC)c1)C[C@]1(O)C(=O)C(C)=C[C@@H]41)O2	?
O=C(Cc1ccc(Cl)c(Cl)c1)N1CCCCC1CN1CCCC1 (stereo not drawn)	0.5
O=C(NC(=O)c1ccccc1Cl)Nc1ccc(OC(F)(F)F)cc1	5.3
NCCCP(=O)(O)O	1.1
CCN1C[C@]2(COC(=O)c3ccccc3N3C(=O)C[C@H](C)C3=O)CC[C@H](OC)[C@@]34[C@@H]5C[C@H]6[C@H](OC)[C@H]5[C@](O)(C[C@@H]6OC)[C@@](O)([C@@H](OC)[C@@H]23)[C@@H]14	-10.3
COC(=O)c1ccc2[se]c(CC3CCCCC3)c(I)c2c1	3.4
CN1CC(CNC(=O)OCc2ccccc2)CC2c3cccc4c3c(cn4C)CC21 (stereo not drawn)	-15.6
c1cc2cc(c1)C[n+]1ccc(c3ccccc31)NCc1ccc(cc1)CNc1cc[n+](c3ccccc13)C2	-4.5
COc1cc2c(cc1O)-c1c(O)c(OC)cc3c1[C@H](C2)N(C)CC3	1.8
CC[C@]1(c2cccc(O)c2)CCCCN(C)C1	4.8
CCCN(CCC)[C@@H]1CCc2c(OC)cccc2[C@@H]1C	-4.9
Clc1cccc(SC2CCNCC2)n1	-6.5
CS(=N)(=O)CC[C@@H](N)C(=O)O (stereo partly drawn)	5.0
CN1CCC2=C[C@H](O)[C@@H]3OC(=O)c4cc5c(cc4[C@H]3[C@H]21)OCO5	-24.0
Nc1ccc(N)cc1	-14.4
C/C=C1\C[N@@+]2(C)CC[C@@]34C(=C(C=O)[C@H]1C[C@H]32)Nc1ccccc14	-2.7
O=C(O)[C@H]1[C@H]2CN[C@H](C(=O)O)[C@H]21	-7.0
CC1(C(=O)O)C2CCC(O2)C1(C)C(=O)O (stereo not drawn)	-5.7
CCCc1cc2c(n1Cc1cccc(Cl)c1)C(C)C1CN(C(=O)c3ccccc3)C(C)(C(=O)OC)C21 (stereo not drawn)	-5.7
COC(=O)COc1ccc(Cl)cc1Cl	8.0
C[C@@]12CCC3C(CC[C@@H]4CC(O)CC[C@@]34C)C1CCC2O (stereo partly drawn)	-0.3
O=C1NCN(c2ccccc2)C12CCN(CC1COc3ccccc3O1)CC2 (stereo not drawn)	1.7
CC1(C)C(=O)[C@@H]2OC2[C@@]2(C)C1CC(O)[C@]1(C)C2CC[C@@]2(C)C(c3ccoc3)OC(=O)C3OC312 (stereo partly drawn)	1.4
CCCOc1ccc2[nH]cc(C3=CCNCC3)c2n1	-15.5
CCCCC/C=C\C/C=C\C/C=C\C/C=C\CCCC(=O)OC(CO)CO	?
O=C1C=C2C=C[C@@H]3C[C@@]2(O1)[C@H]1CCCCN31	-1.5&-7.1
COc1ccc(/C=C/C(=O)N2CC3C[C@@H](C2)Cn2c3cccc2=O)cc1OC	0.4
O=C(O)c1ccc2[nH]cc(CCCCN3CC=C(c4ccccc4)CC3)c2c1	-3.4
O=C1C=CC(=O)C(Cl)=C1	-0.3
CCCN(CCC)[C@@H]1CCc2c(F)ccc(O)c2C1	-9.6
CN1CCC2=C[C@@H](O)[C@@H]3OC(=O)c4cc5c(cc4C3C21)OCO5 (stereo partly drawn)	-1.7
Cn1c2c(c3ccccc31)CCNCC2	0.4
COC1=CC23CCCN2CCc2cc4c(cc2C3C1O)OCO4 (stereo not drawn)	6.7
CN1C2CCC1CC(OC(=O)C1CCC(C(=O)OC3CC4CCC(C3)N4C)(c3ccccc3)c3ccccc31)C2 (stereo not drawn)	-4.8
CC(=O)OCC1=C(C(=O)O)N2C(=O)C(NC(=O)CCCC(N)C(=O)O)C2SC1 (stereo not drawn)	4.4
CN(C)C1C(=O)C(C(N)=O)=C(O)[C@@]2(O)C(=O)C3=C(O)c4c(O)ccc(Cl)c4[C@](C)(O)C3CC12 (stereo partly drawn)	-14.6
CNC(C)[C@H](O)c1ccccc1 (stereo partly drawn)	-3.2
O=C1C(Cl)=C(Cl)C(=O)C(Cl)=C1Cl	-1.4
CCCCCCCCCCCCC/C=C/[C@@H](O)[C@@H](N)COP(=O)([O-])OCC[N+](C)(C)C	-7.7
CC1=C(O)C(=O)[C@H]2O[C@@H]2C1=O	-6.4
C[C@H](N)[C@@H](O)c1ccccc1	6.6
COC1(CS(=O)c2ccccc2)CCN(CCc2c[nH]c3ccc(F)cc23)CC1 (stereo not drawn)	-6.9
CN1C2CCC1CC(OC(c1ccccc1)c1ccc(Cl)cc1)C2 (stereo not drawn)	-9.7
CCN(CC)C(=O)N[C@@H]1C[C@@H]2c3cccc4[nH]cc(c34)C[C@H]2N(C)C1	-8.7
O=C1NC(=O)C(=O)C(=O)N1	-0.2
CN(C)[C@H]1C(=O)C(C(N)=O)=C(O)[C@]2(O)C(=O)C3=C(O)c4c(O)cccc4[C@@](C)(O)[C@H]3C[C@@H]12	2.1

Remaining list, next part
SMILES	GLA inh pH 4.5
Cc1cc(SCc2sc(-c3ccc(C(F)(F)F)c(F)c3)nc2C)ccc1OCC(=O)O	-7.7
N#CC(C#N)=Cc1cc(O)c(O)c(O)c1	4.7
C[C@H](CCC(=O)O)C[C@H](C)C[C@H](C)C(=O)/C=C(\O)[C@H](C)C[C@H](C)C/C=C/[C@@H](C)[C@@H](O)[C@@H](C)[C@@H](O)C[C@@H]1CC[C@@](C)([C@H]2CC[C@@](C)([C@@H](C)O)O2)O1	-11.1
O=C1Nc2cc(Cl)c(Cl)cc2N2CCNC[C@H]12	-8.3
c1cncc(C2=NCCC2)c1	-0.1
CN(C(=O)Cc1ccc(Cl)c(Cl)c1)[C@H](CN1CCCC1)c1cccc(N=C=S)c1	-6.2
C[C@H]1CC[C@@H]2[C@@H](C)C(=O)O[C@H]3O[C@@]4(C)CC[C@H]1[C@@]32OO4	0.0
C[N+](C)(C)CC(=O)[O-]	3.9
N[C@@H](Cn1ccc(=O)n(Cc2ccc(C(=O)O)cc2)c1=O)C(=O)O	3.2
C=C[C@H]1CN2CC[C@@H]1C[C@H]2[C@@H](O)c1ccnc2ccccc12	3.3&-2.5
C[C@@H]1CC[C@H]2[C@@H](C)C(=O)O[C@@H]3OC4(C)CC[C@@H]1C32OO4 (stereo partly drawn)	-1.0
N#Cc1c(Cl)cccc1Cl	7.1
COC1=CC(=O)O[C@@H](/C=C\c2ccccc2)C1	6.6
N[C@@]1(C(=O)O)CC[C@H](C(=O)O)C1	-2.2&-12.0&-6.4
CCCN(C/C=C\I)[C@@H]1CCc2ccc(O)cc2C1	-26.6
Cc1c(C(=O)c2cccc3ccccc23)c2cccc3c2n1[C@@H](CN1CCOCC1)CO3	-10.4
CC/C=C\C/C=C\C/C=C\C/C=C\C/C=C\CCCC(=O)NC(C)C(=O)O (stereo not drawn)	-5.9
CC[C@@]1(O)C(=O)OCc2c1cc1n(c2=O)-c2cc3ccccc3nc2C1	?
CCCCCCCCc1[se]c2ccccc2c1[Se]c1ccccc1	-7.8
COC(=O)[C@@]1(Cc2ccccc2)[C@H]2c3cc(C(=O)N(C)C)n(C)c3C[C@H]2CN1C(=O)c1ccccc1	-7.8
O=c1ccc2cc(OC3OC(CO)C(O)C(O)C3O)c(O)cc2o1 (stereo not drawn)	?
CC(C)n1cnc2c(C(=O)N[C@H]3CN4CCC3CC4)cc(Cl)cc21	2.7
CCCCC/C=C\C/C=C\C/C=C\C/C=C\CCCC(=O)NCC(=O)O	0.4&-11.3&-5.9
C/C=C(/C)C(=O)O[C@H]1C(C)=C2C([C@@H]1OC(=O)CCCCCCC)[C@@](C)(OC(C)=O)C[C@@H](OC(=O)CCC)[C@@]1(O)[C@H]2OC(=O)[C@@]1(C)O (stereo partly drawn)	-25.2

Three compounds drawn at random from those above, as already listed:
SMILES	GLA inh pH 4.5
C/C=C(/C)C(=O)O[C@H]1C(C)=C2C([C@@H]1OC(=O)CCCCCCC)[C@@](C)(OC(C)=O)C[C@@H](OC(=O)CCC)[C@@]1(O)[C@H]2OC(=O)[C@@]1(C)O (stereo partly drawn)	-25.2
CN1C2CCC1CC(OC(c1ccccc1)c1ccc(Cl)cc1)C2 (stereo not drawn)	-9.7
CNC(C)[C@H](O)c1ccccc1 (stereo partly drawn)	-3.2

Additional records.
SMILES	GLA inh pH 4.5
Cl.Cl.Cl.Cl.Cl.Cl.N.N.N.N.NNNNN.NNNNN.O.O.[Ru].[Ru].[Ru]	-7.3
COC1C(O)C(C)O[C@@H](OC2CC[C@@]3(C)C4CC[C@]5(C)C(C6=CC(=O)OC6)CC[C@@]5(O)C4CC[C@@H]3C2)C1O (stereo partly drawn)	4.8
CN(C)CCN(C)CCc1ccc(Cl)c(Cl)c1	-1.7
N#CC(C#N)=NNc1ccc(OC(F)(F)F)cc1	-12.8
C[C@@]12CCC3C(CCC4=CC(=O)CC[C@]43C)C1CCC2O (stereo partly drawn)	-14.9
CNC(C)[C@@H](O)c1ccccc1 (stereo partly drawn)	8.4
COc1ccc2c(c1)C13CCCCC1C(C2)N(C)CC3 (stereo not drawn)	-1.6
C[C@]12CCC3C(C=CC4=CC(=O)CC[C@]43C)C1CC[C@]2(O)CCC(=O)O (stereo partly drawn)	-5.4
NCC(N)C(=O)c1ccccc1 (stereo not drawn)	-6.3
CCCCC/C=C\C/C=C\C/C=C\C/C=C\CCCC(=O)N(Cc1ccc(O)c(Cl)c1)Cc1ccc(O)c(Cl)c1	-4.4
CC(N)[C@H](O)c1ccccc1 (stereo partly drawn)	-2.7
CN1C(=O)COc2c(C(=O)N[C@@H]3CN4CCC3CC4)cc(Cl)cc21	0.0

Laid out differently: entries from further up.
compound | GLA inh pH 4.5
C[C@]12CCC3C(C=CC4=CC(=O)CC[C@]43C)C1CC[C@]2(O)CCC(=O)O (stereo partly drawn) | -5.4
NCC(N)C(=O)c1ccccc1 (stereo not drawn) | -6.3
CCCCC/C=C\C/C=C\C/C=C\C/C=C\CCCC(=O)N(Cc1ccc(O)c(Cl)c1)Cc1ccc(O)c(Cl)c1 | -4.4

(cont.)
SMILES	GLA inh pH 4.5
COc1ccc(C[C@H]2c3cc(OC)c(OC)cc3CCN2C)cc1OC	-1.6
CCCCC/C=C\C/C=C\C/C=C\CCCCC(=O)NCCc1ccc(O)c(O)c1	-17.2
CC(C)[C@@]1(NC(=O)[C@@H]2C[C@@H]3c4cccc5[nH]cc(c45)C[C@H]3N(C)C2)O[C@@]2(O)C3CCCN3C(=O)[C@H](Cc3ccccc3)N2C1=O (stereo partly drawn)	?
CC1(C)C(C=C(Cl)Cl)C1C(=O)OC(C#N)c1cccc(Oc2ccccc2)c1 (stereo not drawn)	-4.0
C[C@]12CCC(=O)C=C1CCc1ccc(O)cc12	4.7
C[C@H]1C(=O)O[C@@H]2CCN3CC=C(COC(=O)[C@@](C)(O)[C@@]1(C)O)[C@H]23	5.4
CC1=CC[C@@H]2[C@@H](C1)c1c(O)cc(CC#CCCCNS(C)(=O)=O)cc1OC2(C)C	?
C[C@H]1CC[C@@]2(NC1)O[C@@H]1C[C@H]3[C@@H]4CC[C@@H]5C[C@@H](O)CC[C@@]5(C)[C@@H]4CC[C@]3(C)[C@@H]1[C@@H]2C	4.8
CC(=O)Oc1ccc(Cl)c2cccnc12	5.6
COC(=O)CN1CN(c2ccccc2)C2(CCN(Cc3ccc4ccccc4c3)CC2)C1=O	-4.1
CC(C)(C)OC(=O)N1CC[C@H]1COc1cnc[c]([Sn]([CH3])([CH3])[CH3])c1	-4.6
C[C@H]1CC[C@@]2(NC1)O[C@@H]1C[C@H]3[C@@H]4CC=C5C[C@@H](O)CC[C@]5(C)[C@@H]4CC[C@]3(C)[C@@H]1[C@@H]2C	2.7
Cc1o[nH]c(=O)c1C[C@@H](N)C(=O)O	5.0
C=C1[C@@H](O)C2C=CC[C@H](C)C(=O)[C@@](C)(O)C=C[C@@H](OC(C)=O)[C@@]23C(=O)N[C@H](Cc2ccccc2)[C@@H]3[C@@H]1C (stereo partly drawn)	-5.0
CC[C@H]1CN2CC[C@@H]1C[C@H]2[C@@H](O)c1ccnc2ccc(OC)cc12	-3.0
O=c1ccc2cc(O[C@H]3O[C@@H](CO)[C@@H](O)[C@@H](O)[C@@H]3O)c(O)cc2o1	?
CCCCC[C@@H](/C=C/C=C\CCCCCCCCCC(=O)O)OO	-5.4
O=C(O)Cc1cccnc1C(=O)O	-3.4
CC(=O)O[C@@H]1CN2CCC1CC2	-2.0
COc1cc2c3cc1Oc1c(OC)c(OC)cc4c1C(Cc1cccc(c1)Oc1ccc(c(O)c1)CC3N(C)CC2)N(C)CC4 (stereo not drawn)	?

Rewritten as labelled records: 2 of the compounds above
> COc1cc2c3cc1Oc1c(OC)c(OC)cc4c1C(Cc1cccc(c1)Oc1ccc(c(O)c1)CC3N(C)CC2)N(C)CC4 (stereo not drawn)
  GLA inh pH 4.5 = ?
> Cc1o[nH]c(=O)c1C[C@@H](N)C(=O)O
  GLA inh pH 4.5 = 5.0

Assay outcomes from PubChem.
